Bioassay records: PubChem, National Center for Advancing Translational Sciences (NCATS)
nsP2pro primary: inhibitors of chikungunya virus nsP2 protease; AID 1964107; hit rate 1.1% among 31,000; FRET peptide cleavage, nsP2pro, fluorescence 1 h; Potency, µM (titrated, usually from 24.9 µM), inactives show at the highest dose activity change, negative = inhibition, actives largely listed as inhibitors; Q8JUX6; active means well fitted inhibition curve with a large enough effect; inconclusive means small, poorly fitted or top-dose-only effect; inactive means no such curve, though single readings can be large or run the other way; note: nearly all actives have a fitted effect of over 60% in size; a reference inhibitor and vehicle were the controls
Numbers without * were called inactive; i = inactive; ? = inconclusive; & = joins results of further samples; [ ] = remark or other dose. % is set by controls: 0 for no effect and ±100 for the full control effect; potency is the fitted concentration of half-maximal effect. Not all compounds are listed. The share of hits here may be higher or lower than overall.

Molecule,nsP2pro primary
CC(=O)N1CCc2cc(S(=O)(=O)Nc3ccc(C)c(C)c3)ccc21,i
CNc1nc2c(s1)C(c1ccc(Cl)cc1)CC(=O)N2 (configuration not stated),3.2µM*
Cc1cc(S(=O)(=O)N[C@@H]2CCOC[C@H]2Oc2ccccn2)c(C)s1,i
O=C(C1CCCN1C(=O)C1CCCC1)N1CCC(N2Cc3ccccc3C2=O)CC1 (configuration not stated),1%
CSc1cc2c(s1)c1cnn(Cc3cccc(N)c3)c(=O)c1n2C,-7%
O=c1cc(CN2CCCCC2c2ccccn2)[nH]c2ccc(F)cc12 (configuration not stated),33%[activator]
Cc1cc(C(=O)Nc2ccc(NC(=O)Cc3ccc(Cl)c(Cl)c3)cc2)no1,i
Cc1ccsc1CNc1ncnc2ccc(-c3c(C)noc3C)cc12,-13%
O=C(O)[C@H](O)c1ccccc1,-6%
O=C(Nc1ccc2c(c1)OCCO2)N[C@@H]1C[C@H](CO)[C@@H](O)[C@H]1O,-16%[39.2 µM]
COc1ccc(CNC(=O)C2CCCN(C(=O)c3cnn(-c4ccc(F)cc4)c3-n3cccc3)C2)cc1 (configuration not stated),-19%
O=C1CCCCC(CNC(=O)c2cccc(F)c2)N1 (configuration not stated),i
OCc1ccc(O[C@@H]2O[C@H](CO)[C@@H](O)[C@H](O)[C@H]2O)cc1,-13%
Cc1ccc(CN(C(=O)COc2ccc(Cl)cc2)c2ccccn2)o1,?
Cc1ccc(S(=O)Cc2nc(-c3ccc(C(=O)NC(C)c4ccccc4)cc3)oc2C)cc1 (configuration not stated),-22%
C=CCS(=O)(=O)N1C[C@H]2OC(=O)N(CCc3cccc(Cl)c3)[C@H]2C1,4%
COc1ccc(CNc2cc3c(cn2)CN(Cc2ccccc2)CCN3)cc1OC,3%[39.2 µM]
Cc1ccc(NC(=O)CN2C(=O)N/C(=C\c3cccn3-c3ccc(C(=O)NS(C)(=O)=O)cc3)C2=O)cc1,i
CN(Cc1ccccc1)C(=O)c1nc(-c2ccc(Cl)cc2)n2c1CCCCC2,-19%
Cn1c(=O)n(-c2ccc(C(C)(C)C#N)cc2)c2c3cc(C#Cc4cccnc4)ccc3ncc21,-8%[10 µM]
O=C(CSc1nc(-c2cccc(F)c2)[nH]c1-c1ccccc1)Nc1ccc2c(c1)OCCO2,37%[activator]
O=c1cc(-c2ccncc2)oc2c(-c3cccc(CO)c3)nccc12,14µM*
Nc1ncnc2c1nc(Cl)n2C1OC2COP(=O)(O)OC2C1O (configuration not stated),2%
Cc1cc(CN2CC(Oc3ccc(F)c(F)c3)C2)no1,i
CC(CNC(=O)c1nnc(Cc2cccc(F)c2)o1)c1ccccc1 (configuration not stated),-5%
CC(=O)N1CCN(C(=O)c2cnc(N)nc2-c2ccccc2)CC(O)C1 (configuration not stated),2%
CC(=O)OC[C@]12C[C@H](O)C(C)=C[C@H]1O[C@@H]1[C@H](O)[C@@H](O)[C@@]2(C)[C@]12CO2,-2%
O=[S+]([O-])(Nc1nccs1)c1ccc(NCc2ccc(Cl)c(Cl)c2)cc1,i
COc1ccccc1O,-5%
Cc1cc(C)nc(NC(=S)N2CCN(c3ncc(Cl)cc3Cl)CC2)c1,2%
Cc1oc(-c2ccc(Cl)cc2)nc1CS(=O)CC(=O)NCCc1ccccc1 (configuration not stated),-23%
C=CC1(C)CC(=O)C2(O)C(C)(O1)C(OC(C)=O)C(OC(=O)CCN(C)C)C1C(C)(C)CCC(O)C12C (configuration not stated),9%
Cc1sc(-c2cc3c([nH]c2=O)CC(c2ccccc2)CC3=O)nc1-c1ccc(Cl)cc1 (configuration not stated),-12%
CCCN1CCC2(CCN([S+](=O)([O-])c3cccs3)CC2)Oc2ccccc21,?
Cc1ccc(CN(C(=O)COc2ccc([N+](=O)[O-])cc2)c2ccccn2)cc1,-16%
CCc1nc(-c2c3n(c(=O)n(CC(=O)Nc4cccc(C)c4)c2=O)CCCCC3)no1,-1%
CNC1CCC(N(Cc2cccc(-c3ccncc3)c2)C(=O)c2sc3c(F)ccc(F)c3c2Cl)CC1 (configuration not stated),?
C/C(=C\C(=O)C(C)C1CCC2C3=C(CCC21C)C1(C)CCC(=O)C(C)(C)C1(O)CC3)C(C)(C)O (configuration not stated),34%[10 µM]
O=C1NCCCCCN(C(=O)Cc2cccc(F)c2)[C@H]2CCC[C@@H]12,-4%
Cc1ccc(Cc2c(C)nc3nc(SCC(=O)NCCN4CCNCC4)nn3c2C)cc1,7%
O=C(CNC(=O)c1ccc(Cl)cc1)OCc1cc(=O)n2nc(C3CCCCC3)sc2n1,-17%
NC(=O)[C@H](CC1CCCCC1)NC(=O)[C@@H]1CN(C(=O)Nc2ccccc2)CCN1S(=O)(=O)c1ccccc1,-1%
CCOc1ccc(Nc2nc(Nc3ccc(OCC)cc3)nc(N3CCOCC3)n2)cc1,-16%
Cc1noc([C@@H]2C[C@H](NC(=O)C3CCCCC3)CN2C)n1,-10%[39.2 µM]
Cc1nn(C)c(=O)n1C1CCN(C(=O)c2ccco2)CC1,?
COc1ccc(-c2nc(-c3ccc(C(=O)O)cc3)no2)cc1,i
COc1ccc(C(=O)N2C[C@@H]3C[C@H](C2)c2ccc(NS(=O)(=O)c4ccc(OC)cc4)c(=O)n2C3)cc1,-3%
COc1ccc(CC(=O)Nc2sc3c(c2C(=O)Nc2ccccc2)CCCCC3)cc1,-11%
CCOC(=O)C[N+]1(C)CC[C@@H](OC(=O)[C@](O)(c2ccccc2)C2CCCC2)C1 (some centres not stated),3%
CCCOC(=O)c1c(NC(=O)c2cc3ccccc3c(=O)o2)sc2c1CCC(C)C2 (configuration not stated),-14%

Continued.
Molecule,nsP2pro primary
C=C(C)C1CC(O)C(C)C12CC(O)C1(C)OC1C2O (configuration not stated),?
CCc1cc(N2CCC(NCCc3cccc(Cl)c3)CC2)nc(C)n1,i
Cc1ccc2nc3c(cc(C(=O)NC4CCCC4)c(=N)n3C(C)C)c(=O)n2c1,?
CCc1ccccc1NC(=O)[C@H](Cc1ccccc1)N1Cc2ccccc2C1=O,-3%
Cc1cc2c(s1)c1cnn(Cc3ccc(-n4cncn4)cc3)c(=O)c1n2C,4%
CCn1ccc(C(=O)N2CC(c3nc(CCOCC4CC4)no3)C2)n1,i
O=C(CCCCCn1c(=O)[nH]c2ccccc2c1=O)N1CCN(c2cccc(C(F)(F)F)c2)CC1,-17%
CNc1oc(-c2ccc(-c3ccccc3)cc2)nc1C#N,?
CC(=O)OCC1=C[C@H](O)[C@@H]2C(C(=O)O)=CO[C@@H](O[C@@H]3O[C@H](CO)[C@@H](O)[C@H](O)[C@H]3O)[C@H]12,-11%[10 µM]
CCOc1ccccc1NC(=O)Cn1c(=O)n(-c2ccc(F)cc2)c(=O)c2sc3ccccc3c21,-16%
COCCn1ncc(N2CCC(C(=O)N3CCN(C(C)C)CC3)C2)cc1=O (configuration not stated),-2%
Cc1ccccc1-c1cc(N2CCN(C)CC2)ncc1N(C)C(=O)C(C)(C)c1cc(C(F)(F)F)cc(C(F)(F)F)c1,7%
Cc1cc(C)nc(NC(=S)N2CCN(c3cc(C(F)(F)F)nc(C)n3)CC2)c1,3%
Cc1ccn2c(=O)cc(COc3ccc(NC(=O)C(C)(C)C)cc3)nc2c1,-17%
CCOC(=O)c1ccc(NC(=O)c2oc3c(c2C)-c2nn(Cc4ccccc4Cl)cc2CC3)cc1,-16%
Nc1ccc(-c2nnc(NC(=O)Nc3ccc(Cl)c(Cl)c3)s2)cc1,-3%
CCOC(=O)c1c(C)[nH]c(C)c1S(=O)(=O)N(C)CC(=O)N1CCN(c2cccc(Cl)c2)CC1,-13%
CCn1nc(C)c2c(-c3ccccc3)cc(=O)n(C(C)C(=O)NCCc3ccc(Cl)cc3)c21 (configuration not stated),-8%
CC1(C)CC[C@]2(C(=O)O[C@@H]3O[C@H](CO)[C@@H](O)[C@H](O)[C@H]3O)CC[C@]3(C)C(=CCC4[C@@]5(C)C[C@@H](O)[C@H](O)[C@](C)(C=O)C5CC[C@]43C)[C@@H]2[C@@H]1O (some centres not stated),55%[activator][10 µM]
CCCCN(CC)CCNC(=O)c1cn(C)c(=O)c2c1c1ccccc1n2C,-19%
CC(C)(C)c1ccc(CN2CCN(C(c3ccccc3)c3ccc(Cl)cc3)CC2)cc1 (configuration not stated),18%&2%
Cc1cccc(CNC(=O)CCCN2C(=O)c3cccnc3Oc3ccccc32)c1,-10%
Cc1nc(CN2C[C@H](C(=O)N3CCN(CCO)CC3)C[C@@H]2c2ccc(F)cc2)cs1,3%[39.2 µM]
O=C(NCCc1nc2c(s1)CCCC2)C1NCCc2[nH]cnc21 (configuration not stated),i
CC(C)c1cc(C(C)C)c(S(=O)(=O)Nc2cccc3cccnc23)c(C(C)C)c1,i
Cn1c(=O)oc2cc(S(=O)(=O)NC(CC(=O)O)c3cccc(Br)c3)ccc21 (configuration not stated),-16%
COc1cc(OC)cc(-c2nnc3n2N=C(c2ccccc2OC)CS3)c1,i
CC(=O)N1CCCc2ccc(NS(=O)(=O)c3cccc(Cl)c3)cc21,-17%
O=C(c1ccc2c(c1)OCO2)N1CCC(C(=O)O)(c2ccccc2)CC1,i
Cc1nnc(NC(=O)CSc2nccn2-c2ccc(Cl)cc2)s1,-18%
CC(=O)O[C@]1(C(C)=O)CC[C@H]2[C@@H]3C[C@H](C)C4=CC(=O)CC[C@]4(C)[C@H]3CC[C@@]21C,-10%&3%
COc1ccccc1OC1CCN(Cc2ccccc2C#N)CC1,i
CSc1cccc(NC(=O)C2CCCN(C(=O)c3cnn(-c4ccc(F)cc4)c3-n3cccc3)C2)c1 (configuration not stated),-9%
COc1ccccc1/C=C/CN1CCC(n2cc(CN(C)C)nn2)CC1,i
C[C@@H]1C[C@H]2[C@@H]3C[C@H](F)C4=CC(=O)C=C[C@]4(C)[C@@]3(F)[C@@H](O)C[C@]2(C)[C@@]1(O)C(=O)CO,-6%&21%
CCC(C)C(C(=O)O)N1Cc2c(OCC=C(C)C)c(C)c(OC)c(C(=O)O)c2C1=O (configuration not stated),?
CCCCN(CC)CCCNC(=O)c1c(C)oc2ncnc(N3CCOCC3)c12,-13%
CC(C)C[C@@H](C=O)NC(=O)[C@H](CC(C)C)NC(=O)[C@H](CC(C)C)NC(=O)OCc1ccccc1,?
CCOC(=O)C1CCN(C(=O)C(C)(C)NC(=O)Nc2ccc3c(c2)CCC3)CC1,-10%
CCn1cc(S(=O)(=O)N2C[C@@H](Oc3ccccc3)C[C@H]2C(=O)N2CCCC2)cn1,0%
O=C(N[C@@H]1C[C@H](Cn2cc(CN3CCS(=O)(=O)CC3)nn2)[C@@H](O)[C@H]1O)C1CCCC1,i
O=C(Nc1ccccn1)c1sc2ccccc2c1Cl,-4%
COc1ccccc1CNC(=O)c1cc2c(s1)-c1ccccc1OC2,-8%
COC[C@@H]1CNC[C@H]1c1ccccn1,-1%
Cc1noc(C)c1-c1cc(-c2ccc(CN(C)C)cc2)cn2cncc12,i
C[C@H](Nc1ncnc2nc[nH]c12)c1nc2ccc(F)cc2c(=O)n1-c1ccccc1,8%
O=C(NCCc1ccccc1)c1nc(-c2ccc(Cl)cc2)n2c1CCCCC2,-13%
NC(=O)c1ccccc1OC[C@@H]1CCCN2CCCC[C@H]12,3%
CCN1C(=O)CC(C(=O)Nc2ccc(OC)cc2)SC1=Nc1ccc(C)c(C)c1 (configuration not stated),?
O=c1oc2c(CN3CCCC3)c(O)ccc2cc1-c1ccccc1,-20%

Quoted at random: three entries already listed.
Molecule,nsP2pro primary
CCn1cc(S(=O)(=O)N2C[C@@H](Oc3ccccc3)C[C@H]2C(=O)N2CCCC2)cn1,0%
COC[C@@H]1CNC[C@H]1c1ccccn1,-1%
CCN1C(=O)CC(C(=O)Nc2ccc(OC)cc2)SC1=Nc1ccc(C)c(C)c1 (configuration not stated),?

Back to the main list, repeating the two entries before the break.
Molecule,nsP2pro primary
CCN1C(=O)CC(C(=O)Nc2ccc(OC)cc2)SC1=Nc1ccc(C)c(C)c1 (configuration not stated),?
O=c1oc2c(CN3CCCC3)c(O)ccc2cc1-c1ccccc1,-20%
C[C@H]1CC[C@@]2(OC1)O[C@H]1CC3[C@@H]4CC[C@@H]5C[C@@H](O[C@@H]6O[C@H](CO)[C@@H](O[C@@H]7O[C@@H](C)[C@H](O)[C@@H](O)[C@H]7O)[C@H](O)[C@H]6O[C@@H]6O[C@H](CO)[C@@H](O)[C@H](O)[C@H]6O)CC[C@]5(C)C4CC[C@]3(C)[C@H]1[C@@H]2C (some centres not stated),?
Nc1cccc(C(OCCN2CCCCC2)c2cc3nccc(C(=O)O)c3s2)c1 (configuration not stated),-7%
COC(=O)c1c(C)sc(-c2c(-c3ccc4c(c3)OCCO4)[nH]c3c2c(=O)[nH]c(=O)n3C)c1O,-11%
COc1ccccc1NC(=O)CSc1oc(-c2ccco2)nc1S(=O)(=O)c1ccc(Br)cc1,?
CC(C)(C)n1nnnc1C1CC2(CCOCC2)C(=O)N1Cc1cccs1 (configuration not stated),-14%
COCCCNC(=O)C1CCN(C(=O)c2cc3sccc3n2Cc2ccc(Cl)cc2)CC1,-7%
Cc1nn(-c2ccccn2)c(C)c1[C@@H]1C=C[C@@H](NC(=O)CCC(=O)O)C1,3%[39.2 µM]
